# NS1 inh: qHTS Assay for Inhibitors of Influenza NS1 Protein Function | S. cerevisiae slowed by influenza A NS1, growth recovery by OD600 | AID 2326, 2010 | actives 0.4% (n = 270,000) | Potency, µM (highest dose often 46.1 µM), for the others: at the highest dose activity, positive = more growth; note: actives are rising curves; nearly all actives have a fitted effect of over 50% in size
#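 In this qHTS, NS1 from influenza A is expressed in budding yeast, where it slows growth. Cells are switched from glucose to 2% galactose medium (pH 6.0, -URA), treated with compound, and growth recovery is read at OD600.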
# Lassa entry inh: qHTS for Inhibitors of binding or entry into cells for Lassa Virus; Potency, µM (top dose mostly 37.9 µM), without a hit: top-dose activity change, negative = inhibition, usual class: inhibitors; Lassa virus pseudotype entry inhibition, cell reporter; control for the full effect not named in the record; AID 540256, 2011; actives 1.2% (n = 300,000); active means well fitted inhibition curve with a large enough effect; inconclusive means small, poorly fitted or top-dose-only effect, or effect the other way; inactive means flat fitted curve, though single readings scatter; tested in HEK293 cells; note: % is set by controls: 0 for no effect and ±100 for the full control effect; nearly all actives have a fitted effect of over 50% in size; luciferase read-out
# RE007 growth inh: qHTS Assay for Inhibitors of the HIV-1 protein Vpr | S. pombe RE007 Vpr strain, BacTiter-Glo ATP luminescence, 24 h; control for the full effect not named in the record | Potency, µM (top dose mostly 92.2 µM), for inactives: at the highest dose activity change, negative = less growth | actives 0.21% (n = 360,000) | AID 651644, 2012; active = well fitted falling curve with a large enough effect; inconclusive = small, poorly fitted or top-dose-only effect; inactive = no such curve, though single readings can be large or run the other way;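 note: % is set by controls: 0 for no effect and ±100 for the full control effect; nearly all actives have a fitted effect of over 50% in size; the assay follows cell death caused by Vpr and the record does not say whether a fall means rescue or toxicity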
#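 Fission yeast strain RE007, carrying one chromosomally integrated HIV-1 vpr copy, was seeded at OD 0.01 in PMG+AL medium with 23 nL pinned compound. After 24 h at 30 °C and 99% humidity, viability was read by BacTiter-Glo luminescence.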
# SARS PLpro yeast: qHTS of Yeast-based Assay for SARS-CoV PLP | actives 0.19% (n = 330,000) | AID 485353, 2010 | S. cerevisiae expressing SARS-CoV PLpro, growth rescue; control for the full effect not named in the record | Potency, µM (titrated, usually from 32.9 µM), for inactives: top-dose activity, positive = growth rescue; note: 0% is about no effect; nearly all actives have a fitted effect of over 55% in size; growth read by luminescence after 48 h
# Cruzain Triton: qHTS Assay for Promiscuous and Specific Inhibitors of Cruzain (with detergent); Cruzipain (Trypanosoma cruzi), P25779; purified cruzain, Z-FR-AMC fluorescence, 0.01% Triton; Potency, µM, for inactives: max response, negative = inhibition, actives largely listed as inhibitors; actives 0.43% (n = 200,000); AID 1478, 2009; active = well fitted curve in the direction sought with a large enough effect; inconclusive = small, poorly fitted or top-dose-only effect, or another doubt; inactive = no such curve, though single readings can be large; an effect the other way counts as inactive or inconclusive;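 note: plate controls were neutral wells for no effect and buffer without enzyme for full effect; nearly all actives have a fitted effect of over 40% in size; top concentration of the series not given in the record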
# Target sequence (P25779 123-467 limits assumed): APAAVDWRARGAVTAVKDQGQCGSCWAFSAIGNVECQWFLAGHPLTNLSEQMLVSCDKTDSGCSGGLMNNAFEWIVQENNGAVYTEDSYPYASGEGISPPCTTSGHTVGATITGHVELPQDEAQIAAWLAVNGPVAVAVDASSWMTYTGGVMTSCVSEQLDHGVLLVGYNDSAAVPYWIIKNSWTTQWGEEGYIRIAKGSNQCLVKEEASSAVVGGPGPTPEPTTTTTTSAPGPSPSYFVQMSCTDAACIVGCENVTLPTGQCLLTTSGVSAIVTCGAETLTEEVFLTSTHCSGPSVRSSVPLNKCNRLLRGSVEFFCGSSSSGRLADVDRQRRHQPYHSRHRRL
#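 Detergent-containing run (0.01% Triton X-100) in acetate buffer pH 5.5 with 5 mM DTT: enzyme at 1.5 nM final, 15 min compound preincubation at room temperature, then 2 uM Z-FR-AMC substrate. Activity taken as 60 s fluorescence increase at 360/450 nm.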
# Marburg entry inh: qHTS for inhibitors of binding or entry into cells for Marburg Virus. Marburg virus pseudotyped entry inhibition, cell reporter; control for the full effect not named in the record; about a third of the inactives were read at about 46 µM. Potency, µM (highest dose often 37.8 µM), for the others: at the top dose activity change, negative = inhibition, most hits filed as inhibitors. actives 1.8% (n = 300,000). AID 540276, 2011; active = well fitted inhibition curve with a large enough effect; inconclusive = small, poorly fitted or top-dose-only effect, or effect the other way; inactive = flat fitted curve, though single readings scatter; tested in HEK293 cells; about a fifth of its hits are not listed in these tables; note: % is set by controls: 0 for no effect and ±100 for the full control effect; luciferase read-out
# 2A StopGo: High Throughput Screening for Foot and Mouth Disease Virus Antivirals | human cells with a luciferase reporter of 2A StopGo recoding; control for the full effect not named in the record | Potency, µM (top dose mostly 57.9 µM), inactives show top-dose signal change, negative = less light | actives 1.2% (n = 410,000); active = well fitted falling curve with a large enough effect; inconclusive = small, poorly fitted or top-dose-only effect; inactive = no such curve, though single readings can be large or run the other way; tested in HEK293T cells; note: % is set by controls: 0 for no effect and ±100 for the full control effect; nearly all actives have a fitted effect of over 45% in size; luciferase light after 4 h
# Cruzain inh noDet: qHTS Assay for Promiscuous and Specific Inhibitors of Cruzain (without detergent); Cruzipain (Trypanosoma cruzi), P25779; purified cruzain, Z-FR-AMC fluorescence, no detergent; Potency, µM, for inactives: max response, negative = inhibition, actives largely listed as inhibitors; actives 2.3% (n = 200,000); AID 1476, 2009; active = well fitted curve in the direction sought with a large enough effect; inconclusive = small, poorly fitted or top-dose-only effect, or another doubt; inactive = no such curve, though single readings can be large; an effect the other way counts as inactive or inconclusive;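 note: plate controls were enzyme without inhibitor for no effect and buffer without enzyme for full effect; nearly all actives have a fitted effect of over 40% in size; top concentration of the series not given in the record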
#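 Detergent-free condition (0.00005% Triton X-100) in acetate buffer pH 5.5 with DTT. 1.5 nM enzyme and compound were pre-mixed 15 min, then 2 uM Z-FR-AMC substrate added; reaction progress from fluorescence change between first and third reads (60 s).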
# An asterisk follows results filed as active; ? = inconclusive; . = not tested or not shown; & = joins results of further samples; [ ] = dose if it differs, or a comment. Unless noted, calls come from the whole dose curve; as a rule, active means well fitted rising curve with a large enough effect; inconclusive means small, poorly fitted or top-dose-only effect; inactive means no such curve, though single readings can be large or run the other way. Potency is the fitted concentration of half-maximal effect. Hits appear at their usual frequency, and some 4.8% of all compounds hit somewhere here.
SMILES,NS1 inh,Lassa entry inh,RE007 growth inh,SARS PLpro yeast,Cruzain Triton,Marburg entry inh,2A StopGo,Cruzain inh noDet
C=C1CCN(c2ccc(C(=O)NCc3ccc(C)cc3)cc2[N+](=O)[O-])CC1,-24%,.,10%,2%,.,.,42%[activator],.
COc1cc(NC(=O)Nc2ccccc2)c(OC)cc1NC(=O)CN1CCCCC1,-7%,-25%,-11%,1%,0.3%,?,7%,6%
CC(=O)c1cccc(NC(=O)CCn2c(=O)oc3ccccc32)c1,-2%,5%,-2%,1%,.,6%,-3%,.
CCC(=O)Nc1ccc(-c2nnc(SCC(=O)Nc3nccs3)n2C)cc1,-7%,3%,-3%,1%,5.6%,13%,-8%,12%
CCOc1ccc(-c2cc3c(=O)n(CC(=O)NCc4ccc(Cl)cc4)ccn3n2)cc1,.,23%[46.1 µM],.,.,-0.5%,.,26%,3%
CC(=O)Nc1ccc(N2C(=O)CSC2c2c(F)cccc2Cl)cc1 (stereo not given),15%,-27%,8%[3.69 µM],1%,-1.0%,-24%,-22%,-4%
CCN(CC)CCn1c(NCc2ccccn2)nc2ccccc21,-4%,-11%,1%,7%,1.0%,-4%,-24%,-5%
O=C(c1ccc(Cl)c([N+](=O)[O-])c1)N(Cc1cccc(Cl)c1)C1CCS(=O)(=O)C1 (stereo not given),-2%,-18%,-2%,-2%,-5.4%,-29%,-26%,1%
COc1ccccc1Nc1nc(C)cc(=O)[nH]1,2%,8%,-25%,8%,1.5%,8%,.,-2%
CC(C)C(C(=O)NCC1CCCO1)N(C(=O)CNS(=O)(=O)c1ccc(F)cc1)c1ccccc1 (stereo not given),3%,-5%,14%,-1%,.,-4%[46.1 µM],-3%,.
COc1ccc(C(=O)NC(=S)Nc2cccnc2)cc1[N+](=O)[O-],.,2%,41%,-1%,.,23%,-2%,.
CC(=O)c1ccc(NC(=O)c2ccccc2Sc2ncnc3sc(C)c(C)c23)cc1,-2%,?,-4%,0%,-6.8%,?,-9%,?
O=C(C1=C[C@H](c2ccccc2)C[C@H](OCc2ccc(CO)cc2)O1)N1CCN(Cc2ccccc2)CC1,-7%,.,-22%,-1%,.,.,-27%,.
CCCCN(CCCC)CCCNC(=O)c1ccc2nc(N3CCCCC3)sc2c1,.,.,.,.,-1.9%,?,8%,-9%
COC(=O)c1cc2n(n1)CCN(Cc1ccc(C)cc1)C2=O,-12%,1%,-7%,-6%,9.4%,?,12%,-2%
OCCCn1c(-c2ccccc2)csc1=Nc1ccccc1,.,-17%,-18%,-3%,.,?,?,.
Cn1c(=O)c(C(=O)O)nn(-c2ccccc2)c1=O,.,7%[46.1 µM],.,.,-2.0%,-2%[46.1 µM],-19%,-3%
O=C(CCC1CCCCC1)Nc1ccc(C(=O)c2ccncc2)cc1,.,11%,4%,0%,.,-14%,-3%,.
CC(C)CC(=O)NC(=S)Nc1cccc2nsnc12,-4%,18%[46.1 µM],-16%,5%,.,22%[46.1 µM],3%,.
Cc1ccc(C(=O)NC(=S)N2CCN(c3ccccc3F)CC2)cc1,11%,?,3%,1%,-3.3%,20%,31%[activator],-13%
Cc1cc(NC(=O)CCNS(=O)(=O)c2ccc3[nH]c(=O)oc3c2)ccc1Br,-1%,.,-3%,-1%,.,.,-14%,.
c1ccc(OCCCCN2CCOCC2)cc1,4%,18%,4%,3%,4.3%,17%,14%,5%
CCCOc1ccc(-c2c(C(=O)N/N=C/c3ccc(C)o3)nnn2-c2nonc2N)cc1,12%,.,4%,-1%,.,.,-27%,.
CCOc1ccc(N(CC)S(=O)(=O)N2CCCC(C(=O)NCc3ccccc3Cl)C2)cc1 (stereo not given),.,-16%[46.1 µM],.,.,-6.7%,.,?,16%
O=C(NC1CCCC1)C(c1cccnc1)N(C(=O)c1ccco1)c1cccc(F)c1 (stereo not given),-5%,-6%[46.1 µM],1%,1%,.,17%[46.1 µM],10%,.
CN(C)C(CNC(=O)c1cnc(Cl)c(Cl)c1)c1ccccc1 (stereo not given),6%,.,4%,0%,.,.,3%,.
Cc1c(NC(=O)C(Sc2ccccc2)c2ccccc2)cccc1[N+](=O)[O-] (stereo not given),-12%,-12%,-6%,0%,1.5%,?,?,?
CC(=O)Nc1ccc(S(=O)(=O)N2CCC(c3nc4ccccc4[nH]3)CC2)cc1,-5%,16%,-8%,1%,-1.3%,?,-10%,-15%
C/C(=N/OC(=O)C1CC1)c1cc(-c2ccc(Cl)cc2)no1,-2%,.,-10%,0%,.,.,53%[activator],.
CCC1Oc2ccccc2N(CC(=O)NCCC2=CCCCC2)C1=O (stereo not given),-13%,0%,-2%,-19%,-0.6%,?,-1%,0%
CCN(CC)S(=O)(=O)N1CCC(C(=O)NCc2ccc3c(c2)OCO3)CC1,14%,0%,1%,25%,1.0%,3%,-13%,-1%
CCN1/C(=c2/s/c(=C3/C(=O)N(c4ccccc4)N=C3C)n(CC)c2=O)C=Cc2ccccc21,.,10%,-7%,.,.,-4%[46.1 µM],-12%,.
CCOC(=O)Cc1ccc(NC(=O)N2CCOc3ccc(C)cc32)cc1,.,0%[46.1 µM],.,.,-2.0%,.,-7%,-1%
CC1CCCC(C)N1C(=O)c1ccc(CS(=O)(=O)c2ccccc2)cc1 (stereo not given),-18%,10%,-21%,4%,.,-21%,8%,.
O=C(O)C1=NN(c2ccccc2)C(=O)CC1,3%,4%[46.1 µM],13%,-3%,.,-18%[46.1 µM],-15%,.
COc1cc(OC)cc(C(=O)N[C@H](C(=O)Nc2nc(-c3ccc(OC)c(OC)c3)cs2)C(C)C)c1,12%,.,9%,0%,.,.,-17%,.
C[C@H](NC(=O)c1nc[nH]c1C(=O)N[C@@H](C)c1ccccc1)C(=O)OC(C)(C)C,1%,.,8%,1%,.,.,-21%,.
O=C(COC(=O)c1ccccc1C(=O)c1ccc(Cl)cc1)NCCc1ccccc1,-6%,-19%,3%,-12%,-10%,?,-17%,-3%
COC(=O)[C@H](Cc1ccccc1)NC(=O)NCC1CCCO1 (stereo not given in full),-12%,10%,-8%,-1%,0.5%,3%,11%,6%
Cc1ccc(NC(=O)C2CCN(C(=O)c3ccco3)CC2)cc1,-1%,.,-12%,0%,.,-5%[46.1 µM],1%,.
CCCCCCC(=O)N/N=C/Cc1ccccc1,8%,3%,8%,-6%,2.7%,-3%,13%,-1%
CN1C(=S)SC(/[N+]([O-])=C/c2c(F)cccc2Cl)C1(C)C (stereo not given),6%,17%,-7%,1%,.,?,4%,.
CN1CCc2c(sc3c2C(=O)NC(c2ccccn2)N3)C1 (stereo not given),-4%,4%,-1%,-2%,-8.1%,19%,12%,-15%
COc1cc2c(cc1OC)C(COc1cc(C)cc(C)c1)N(C(=O)C(C)(C)C)CC2 (stereo not given),.,-3%[46.1 µM],.,.,-0.6%,.,-29%,?
CCCCOc1c(Br)cc(/C=C2\N=C(C)OC2=O)cc1OCC,3.5µM*,-38%,-3%,9%,-3.6%,20%,-7%,?
CCc1nc2ccc(C(=O)N3CCN(c4ccccc4)CC3)cc2nc1CC,10%,23%&14%[46.1 µM],8%,-2%,2.6%,-10%&-10%[46.1 µM],-3%&10%,-14%
Cc1ccccc1NC(=O)c1sc(NC(=O)COc2ccccc2)c(C#N)c1C,7%,1%,-18%,10%,-5.7%,-2%,?,18%
Cc1ccc(C2=NN(C(=O)C3CCCO3)C(c3ccco3)C2)cc1 (stereo not given),-8%,8%,-3%,0%,.,-13%[46.1 µM],3%,.
CCOC(=O)C1=C(COC(=O)CNC(=O)c2cc(OC)c(OC)c(OC)c2)NC(=O)NC1C (stereo not given),.,16%,0%,1%,.,21%[46.1 µM],8%,.
O=C(Cn1c2ccc(F)cc2c2nc3n(c(=O)c21)CCS3)N1CCCC1,2%,13%,-13%,-1%,.,1%[46.1 µM],-15%,.
COc1ccc(N2CCN(C(CNC(=O)c3c(F)cccc3F)c3ccc4c(c3)OCO4)CC2)cc1 (stereo not given),.,-16%[46.1 µM],.,.,-3.9%,.,-9%,-4%
O=C(NN1C(=O)c2cc(Br)ccc2NC1c1cc(Br)cc(Br)c1O)c1ccncc1 (stereo not given),24%,-12%,-27%,?,-10%,0%,-3%,10µM*
O=C(CN1CCOCC1)NC1CC2CCC1C2 (stereo not given),5%,23%,21%,5%,0.9%,-2%,-18%,-7%
CC(=O)Nc1ccc(N(C(=O)c2ccco2)C(C(=O)NC2CCCC2)c2ccc(N(C)C)cc2)cc1 (stereo not given),-7%,-9%,8%,0%,.,-9%[46.1 µM],31%[activator],.
CCc1nnc(NC(=O)CSc2nc3[nH]c(=O)cc(O)c3s2)s1,.,3%,11%,-5%,.,-14%,-16%,.
COc1ccc2nc(NC(=O)c3ccc(NC(=O)C4CCCO4)cc3)sc2c1 (stereo not given),1%,14%[46.1 µM],8%,1%,.,?,0%,.
COC(=O)c1cc(C(=O)OCC(=O)Nc2ccccc2OC(F)F)cc([N+](=O)[O-])c1,-6%,2%,-4%,15%,-3.0%,?,-2%,-8%
COc1cc(Cl)c(C)cc1NC(=O)CSc1nnc(-c2ccccn2)n1Cc1ccco1,-37%,-2%,-17%,0%,1.3%,?,-24%,13%

# Source: PubChem BioAssay
